BJeLR viability: BJeLR cell viability loss | BJeLR (HRASV12) viability, CellTiter-Glo ATP luminescence, 48 h; reference of the scale not given here | inhibition, % (concentration not given with the values) | 0.17% of 300,000 active;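 active = replicate mean above 50%; inconclusive = above 50% but judged a plate artefact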;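 note: 50 nL library stock added to about 25 µL; numbers are from one replicate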
RN4220 kill: kills Staphylococcus aureus RN4220 | S. aureus RN4220 growth, OD600, 16 h | inhibition, % (no concentration beside the values) | 0.33% of 330,000 active | AID 1259311;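 active = z-score of -3 or lower and OD600 up to 0.18 on both plates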;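 note: plate controls were untreated cells for no effect and reference antibiotic for full effect; stock transfer was 100 nL into about 80 µL; one replicate is shown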
ugtP null kill: kills S. aureus RN4220 lacking UgtP. S. aureus RN4220 ugtP deletion, OD600 growth, 16 h; some inactives read as strong as hits. AID 1259309. growth inhibition, % (concentration not given with the values). 0.54% of 330,000 active;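 active = z-score under -3 and OD600 up to 0.15 on both plates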;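 note: plate controls were untreated wells for no effect and antibiotic for full effect; wells of about 80 µL received 100 nL stock; the first replicate is given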
Bead autofluor: compound fluorescence in toxin protease inhibitor counterscreen; fluorescence intensity (no concentration beside the values); AID 624483; compound autofluorescence counterscreen, microsphere flow cytometry; stronger effect = higher value; 3.1% of 360,000 active;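 active = at least 3 SD above the mean of all compounds, about 16000 in these data; inconclusive = too few beads counted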;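 note: 100 nL of 1 mM stock went into each well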
Mtb hypoxia inh: inhibitors of hypoxia-regulated fluorescent reporter in Mycobacterium tuberculosis; M. tuberculosis hypoxia-regulated fluorescent reporter, fluorescence; fluorescence inhibition, % (concentration not given with the values); 0.1% of 300,000 active; AID 1159583;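 active = 35 to 45% if threefold the growth effect, above 45% if 1.5-fold the growth effect; inactive = the rest, general growth blockers included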;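 note: wells of about 50 µL received 100 nL stock; 0% = vehicle wells and 100% = reference inhibitor wells; whole bacteria with a GFP reporter of the hypoxia response; strong numbers were not always called active; many hits fall short of the cut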
PrP UTR inh: inhibition of PrP 5' UTR reporter expression. cell-based PrP 5' UTR mRNA reporter, plate reader. AID 488862. inhibition, % (no concentration beside the values). 0.35% of 340,000 active;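 active = every replicate at 50% or more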;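 note: 0 = median of the neutral control wells; tested in H4 reporter cells; numbers are from one replicate; inactives centre near -14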
Mtb hypoxia inh growth: recorded beside Mtb hypoxia inh, whose call it bears; growth inhibition, %; measured here: M. tuberculosis growth (absorbance);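 0% = vehicle and 100% = reference antibiotic; read after six days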
Starred values were filed as active, the others as inactive; u = inconclusive; x = no result given.

Molecule	BJeLR viability	RN4220 kill	ugtP null kill	Bead autofluor	Mtb hypoxia inh	Mtb hypoxia inh growth	PrP UTR inh
Cc1ccc(OCC(=O)NN=C2SCC(=O)N2Cc2ccccc2)cc1	x	4.3	2	x	10	1	x
CCOc1ccc(S(=O)(=O)Nc2cccc(N(C)S(C)(=O)=O)c2)cc1	13	4.4	-3	2730	x	x	-23
COc1ccc(Nc2cc(C)nc(N)n2)cc1	-4	x	x	4666	x	x	-22
Cc1ccc(C(c2cc(Br)ccc2O)N2CCSCC2)cc1 (configuration not stated)	2	-2.6	4	3963	-7	6	-8
CCOC(=O)C1CCN(S(=O)(=O)NC[C@H]2O[C@@H](n3cnc4c(N)ncnc43)[C@H](O)[C@@H]2O)C1 (some centres not stated)	x	-4.6	-3	3002	-3	0	-29
CN(c1ccccc1)S(=O)(=O)c1cccc(NC(=O)CCNC(=O)c2ccc([N+](=O)[O-])cc2)c1	x	4.2	-2	3399	5	-8	-22
Cc1ccc(S(=O)(=O)N2CCN(c3ccc([N+](=O)[O-])cn3)CC2)cc1	5	2.9	3	3914	4	9	-36
O=C(Cn1cnc2ccccc2c1=O)NCCC(=O)N1CCC2(CC1)OCCO2	3	3.7	-9	9409	10	4	-20
CCCOc1cccc(-c2nnc(NC(=O)c3ccco3)s2)c1	-4	4.2	-9	5644	-12	1	-26
COCCOC(=O)C1=C(C)N=C2SCCC(=O)N2C1c1ccc(C(=O)OC)cc1 (configuration not stated)	-4	2.7	11	3273	x	x	-6
Cc1ccc(C(=O)N2CCN(Cc3ccc4c(c3)OCO4)CC2)c(Cl)c1	-13	2.3	14	3746	9	3	-18
O=C(Nc1ccc2c(c1)nc1n2CCN(Cc2ccccc2)C1)NC1CCCCC1	0	-3.5	-10	8745	-5	7	x
O=C(C=Cc1ccccc1Cl)c1ccccc1	x	20	9	3654	x	x	-34
CC(=NNC(=S)NCCc1ccccc1)c1cccs1	x	13	-8	x	4	7	x
O=C(Cc1cccc2ccccc12)NCC(=O)N1CCN(Cc2cccc(C(F)(F)F)c2)CC1	x	-8.8	-4	3679	0	6	-10
C/C=C1\COC(C(=O)NCc2cccc(OC)c2OC)(C(F)(F)F)C=C1C=C1CCCCC1 (configuration not stated)	17	x	x	3151	x	x	-19
Cn1c(CN2CCOCC2)nc2cc(NC(=O)COc3ccc([N+](=O)[O-])cc3)ccc21	6	3.8	1	4481	12	-1	-5
CCOC(=O)c1c(NC(=O)c2ccnn2C)sc(C)c1C	-6	-6.9	-4	3327	10	8	-8
CN1C2C=C3C(C#N)=C(N)C(C#N)(C#N)[C@@H](c4cccs4)C3C1CC2 (some centres not stated)	2	-6.3	8	2412	x	x	-8
O=C(c1ccc(Cl)cc1Cl)N1CCOCC1	x	2.9	-1	3880	3	6	-1
C=CCSC(N)=NN=Cc1cc(Br)cc([N+](=O)[O-])c1O	x	28	21	x	7	-1	x
Cc1ccc(NC(=O)c2ccc(COc3ccccc3[N+](=O)[O-])o2)nc1	x	10.0	10	u	0	3	-22
O=C1c2ccccc2C(=O)c2c1cccc2N1CCN(C/C=C/c2ccccc2)CC1	-3	3.0	8	4796	6	-1	-14
CCn1ccnc1CN1CCCC(C(=O)c2ccc3cc(OC)ccc3c2)C1 (configuration not stated)	4	-3.5	17	4753	-4	12	-28
O=C(CSc1nnc(C2CCCCC2)o1)N1CCCCC1	18	3.8	-1	9798	15	11	-23
COc1ccc(CN(C)CC(=O)Nc2cc3oc4ccccc4c3cc2OC)c(OC)c1	-12	x	x	10689	x	x	7
COc1cc(CNc2nc3ccccc3[nH]2)cc(OC)c1OC	0	3.7	-1	10355	-2	2	-24
NC(=O)c1c(NC(=O)c2ccc(S(=O)(=O)N3CCOCC3)cc2)sc2c1CCCCC2	8	3.9	-6	2526	8	5	-37
CC(C)Oc1cccc(C(=O)NC(=S)Nc2ccc(Cl)c(C(=O)O)c2)c1	-10	8.7	-1	23433*	6	7	-13
CCCC(=O)N1CCN(c2ccc(NC(=O)c3cc4ccccc4o3)cc2Cl)CC1	-7	11	-12	3498	-2	11	-20
Fc1ccccc1-c1nc(-c2cnccc2C(F)(F)F)no1	3	0.0	-13	4345	4	16	-37
O=[N+]([O-])c1ccc(CSc2ncnc3c2ncn3C2OC(CO)C(O)C2O)cc1 (configuration not stated)	x	0.4	-6	x	-2	8	x
CCOc1ccc(-c2nnc(-c3ccccc3)o2)cc1	6	1.3	-19	3014	x	x	-6
CC(=O)c1cccc(NC(=O)CN2C(=O)COc3ccc(S(=O)(=O)N4CCOCC4)cc32)c1	-1	1.0	1	5541	-9	-1	8
CN1CCCN(C(c2ccccc2)c2ccc(Cl)cc2)CC1 (configuration not stated)	-2	-4.2	4	4457	8	13	1
CCC(C)Nc1nc2c(c(=O)[nH]c(=O)n2C)n1CCC(C)C (configuration not stated)	0	6.0	-1	3138	3	11	-2
Cc1ccc(-c2n[nH]c(=S)n2/N=C\c2ccco2)cc1	-18	x	x	2141	x	x	-11
COCCNc1nc2ccccc2n1CC(=O)c1ccc(OC)c(OC)c1	-14	1.8	9	4087	2	1	-26
COc1ccccc1C(=O)NCCCNC(=O)c1cccnc1	0	3.9	-3	3823	-13	5	-12
O=C(COC(=O)c1c[nH]c2ccccc12)Nc1ccc(F)cc1	x	1.9	-5	5895	1	2	-10

7 compounds drawn at random from the list so far, as already listed:
Molecule	BJeLR viability	RN4220 kill	ugtP null kill	Bead autofluor	Mtb hypoxia inh	Mtb hypoxia inh growth	PrP UTR inh
COc1ccc(CN(C)CC(=O)Nc2cc3oc4ccccc4c3cc2OC)c(OC)c1	-12	x	x	10689	x	x	7
CCCC(=O)N1CCN(c2ccc(NC(=O)c3cc4ccccc4o3)cc2Cl)CC1	-7	11	-12	3498	-2	11	-20
CCn1ccnc1CN1CCCC(C(=O)c2ccc3cc(OC)ccc3c2)C1 (configuration not stated)	4	-3.5	17	4753	-4	12	-28
O=C(COC(=O)c1c[nH]c2ccccc12)Nc1ccc(F)cc1	x	1.9	-5	5895	1	2	-10
O=C1c2ccccc2C(=O)c2c1cccc2N1CCN(C/C=C/c2ccccc2)CC1	-3	3.0	8	4796	6	-1	-14
Cc1ccc(-c2n[nH]c(=S)n2/N=C\c2ccco2)cc1	-18	x	x	2141	x	x	-11
CCC(C)Nc1nc2c(c(=O)[nH]c(=O)n2C)n1CCC(C)C (configuration not stated)	0	6.0	-1	3138	3	11	-2

More entries
Molecule	BJeLR viability	RN4220 kill	ugtP null kill	Bead autofluor	Mtb hypoxia inh	Mtb hypoxia inh growth	PrP UTR inh
O=C(O)c1cccc(NC(=S)NN=Cc2ccccc2OCc2cccc(Br)c2)c1	x	33	35	x	-3	-4	x
COc1ccc(CCNC(=O)CSc2nc(N)c(C#N)c(-c3cccs3)c2C#N)cc1OC	5	5.4	8	9555	-2	5	-13
Cc1cccc(C(=O)Nc2cccc(C(=O)N/N=C/c3cccc(C)n3)c2)c1	3	x	x	3795	x	x	-11
CCc1nc2ccc(C(=O)O)cc2nc1CC	3	3.8	0	2088	11	13	-31
Cc1ccc(C(=O)Nc2cccc(N(C)S(C)(=O)=O)c2)cc1S(=O)(=O)Nc1ccccc1	-2	-1.6	11	11264	5	12	-11
Cc1ccc(C)c(S(=O)(=O)N2CCCC2CNC(=O)C(=O)NCCc2ccco2)c1 (configuration not stated)	3	1.3	8	7276	4	10	-3
Cc1ccccc1OCCCC(=O)Nc1nccs1	-1	4.0	-3	10838	3	4	-24
c1ccc(-c2csc3ncnc(N4CCOCC4)c23)cc1	1	4.1	4	4922	11	-11	-31
COC(=O)C1=C(C(=O)OC)C2N(C)c3ccc(OC)cc3[C@@]23CC(C(=O)OC)N(C(=O)c2cc(C)oc2C)C3=N1 (some centres not stated)	x	3.8	7	x	11	-1	x
N#Cc1c(NC(=O)C2CC(Cl)=CCC2C(=O)O)sc2c1CCCC2 (configuration not stated)	8	5.1	3	2637	4	9	-20
CCCCCCNC(=O)C(C#N)c1nc2ccccc2nc1N1CCOCC1 (configuration not stated)	-1	21	10	2557	-2	-4	-1
CCN(CC(=O)Nc1c(F)cccc1F)C(=O)c1cnc(C)cn1	x	1.5	3	4924	5	2	x
CCCOc1ccc(CCC(=O)NN=Cc2ccc([N+](=O)[O-])o2)cc1	x	17	72	x	5	10	x
CC(C)c1onc(C(=O)NC2CCCC2)c1[N+](=O)[O-]	2	11	7	2127	12	8	-2
COc1ccc(CC(=O)Oc2ccccc2[N+](=O)[O-])cc1	-12	1.6	4	4360	2	-8	-28
O=C(O)CCC(=O)N1CCc2cc(S(=O)(=O)Nc3ccc4c(c3)OCCO4)ccc21	2	0.5	-2	5446	x	x	-26
CC(C)CCn1c(Oc2ccccc2Cl)nc2c1c(=O)n(C)c(=O)n2C	5	2.2	-2	3204	6	11	-5
O=[N+]([O-])c1cccc(S(=O)(=O)NCc2ccncc2)c1	6	-0.6	-2	5183	2	1	-20
CN(c1ccc(C(=O)NCCSC(C)(C)C)cc1)S(=O)(=O)c1ccccc1	4	3.2	1	3891	4	4	-19
Nn1c(SCC(=O)NC(=O)NCc2ccccc2)nnc1C1CC1	4	3.5	7	10913	0	0	-25
O=C(Nc1ccc2c(c1)N(S(=O)(=O)c1cccs1)CCC2)c1c(F)cccc1Cl	3	-3.2	-6	7078	-3	-9	-3
CC1=Nc2nc(N3CCCCCC3)c(C#N)c3c4c(nc(c23)N1)N(c1ccc2ccccc2c1)C(=O)C4	-8	-1.7	-8	5330	-17	-10	-6
Cc1cccc(NC(=O)C2CCCN(S(=O)(=O)c3c(C)nn(C)c3C)C2)n1 (configuration not stated)	2	0.2	10	6239	x	x	-17
C[C@@H]1CC=C[C@H]2[C@H]1C(=O)N(Cc1ccccc1)[C@H]2c1ccc(Br)cc1F	-3	x	x	2939	x	x	-17
O=C(N[C@H]1/C=C\[C@@H](O)CCCC1)OCc1ccccc1	x	2.9	6	3568	9	15	-105
N#Cc1c(Cl)cccc1N1CCC(C(N)=O)CC1	-5	4.6	2	5282	3	15	x
O=C(Cc1ccc([N+](=O)[O-])cc1)N/N=C/c1ccco1	-4	x	x	4180	x	x	-7
Cc1ccc2c(c1)c(N=NC(N)=O)c(O)n2C	0	0.9	-3	4099	-11	-8	-12
O=C(NCc1ccco1)c1sc2cccc(F)c2c1Cl	-1	7.4	-4	15481	7	9	-76
CC1(C)NC(=O)N(CC(O)Cn2nnc3ccccc32)C1=O (configuration not stated)	4	3.6	1	4521	x	x	-15

Compounds as they come (roughly 4.1% active in at least one column).
